Bioassay records: PubChem, several laboratories
Autofluor counter: counter-screen for toxin protease inhibitors: compound fluorescence; compound autofluorescence counterscreen, microsphere flow cytometry; hits give high values; fluorescence intensity (test concentration not listed); 360,000 tested, 3.1% active;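 active = at least 3 SD above the mean of all compounds, about 16000 in these data; inconclusive = too few beads counted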;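 also: 100 nL of 1 mM stock went into each well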
BJeLR viability: BJeLR cell viability loss | BJeLR (HRASV12) viability, CellTiter-Glo ATP luminescence, 48 h; reference of the scale not given here | inhibition, % (concentration not given with the values) | 300,000 tested, 0.17% active;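 active = replicate mean above 50%; inconclusive = above 50% but judged a plate artefact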;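 also: 50 nL library stock added to about 25 µL; numbers are from one replicate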
RN4220 kill: S. aureus RN4220 growth inhibition; OD600, 16 h; AID 1259311; inhibition, % (test concentration not listed); 330,000 tested, 0.33% active;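 active = z-score of -3 or lower and OD600 up to 0.18 on both plates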;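 also: plate controls were untreated cells for no effect and reference antibiotic for full effect; stock transfer was 100 nL into about 80 µL; one replicate is shown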
Mtb hypoxia rep: inhibitors of hypoxia-regulated fluorescent reporter in Mycobacterium tuberculosis; fluorescence inhibition, % (no concentration beside the values); M. tuberculosis hypoxia-regulated fluorescent reporter, fluorescence; 300,000 tested, 0.1% active;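 active = 35 to 45% if threefold the growth effect, above 45% if 1.5-fold the growth effect; inactive = the rest, general growth blockers included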;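 also: wells of about 50 µL received 100 nL stock; 0% = vehicle wells and 100% = reference inhibitor wells; whole bacteria with a GFP reporter of the hypoxia response; strong numbers were not always called active; many hits fall short of the cut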
PrP 5UTR inh: suppresses PrP 5' UTR mRNA reporter expression | inhibition, % (no concentration beside the values) | 340,000 tested, 0.35% active | AID 488862 | cell-based PrP 5' UTR mRNA reporter, plate reader;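 active = every replicate at 50% or more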;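 also: 0 = median of the neutral control wells; tested in H4 reporter cells; numbers are from one replicate; inactives centre near -14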
ugtP null kill: compounds lethal to S. aureus RN4220 ugtP deletion mutant | OD600 growth, 16 h; some inactives read as strong as hits | growth inhibition, % (test concentration not listed) | 330,000 tested, 0.54% active | AID 1259309;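 active = z-score under -3 and OD600 up to 0.15 on both plates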;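 also: plate controls were untreated wells for no effect and antibiotic for full effect; wells of about 80 µL received 100 nL stock; the first replicate is given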
Mtb hypoxia rep growth: further read-out of Mtb hypoxia rep, marked with its call; growth inhibition, %; measured here: M. tuberculosis growth (absorbance);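 0% = vehicle and 100% = reference antibiotic; read after six days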
* = called active by the depositor; ? = inconclusive; . = not tested or not shown.

SMILES	Autofluor counter	BJeLR viability	RN4220 kill	Mtb hypoxia rep	Mtb hypoxia rep growth	PrP 5UTR inh	ugtP null kill
CC1(C)C(=O)CCC2C1=CCC1C2CCC2(C)C(O)CCC12 (centres undefined)	3764	.	17	10	9	-17	2
CCOC(=O)N1CCN(C2CC(=O)N(c3ccc(Oc4ccccc4)cc3)C2=O)CC1 (centres undefined)	9879	-23	2.4	8	9	-11	5
O=C(NN1CCOCC1)c1ccc(Cl)cc1[N+](=O)[O-]	4669	-16	3.7	7	-3	3	11
CC1(C)CC(N2CCCCC2)=CC(=[N+]2CCCCC2)C1	27656*	14	4.0	10	10	-18	5
CCC(C)NS(=O)(=O)c1ccc(OC)c(Cl)c1Cl (centres undefined)	2758	-1	3.5	.	.	-27	6
Cc1noc(C)c1/C=N/Nc1ccc2ccccc2n1	3250	0	.	.	.	-73	.
Cc1coc2c1c(C)cc1oc(=O)c(CC(=O)NCCCN3CCCC3=O)c(C)c12	4310	-2	1.7	.	.	-24	12
CC1CN(C(=O)CSc2nnc(-c3ccc(Cl)cc3)n2C)CC(C)O1 (centres undefined)	6171	-2	-5.4	-4	-11	-16	-1
COc1ccc(NC(=O)Cn2cc(C(=O)C3CC3)c3ccccc32)cc1	3953	-4	1.6	9	-6	-13	-6
CS(=O)(=O)c1ccc(NS(=O)(=O)c2ccc(Cl)c(C(=O)NC3=NCCS3)c2)cc1	2895	.	5.6	-3	3	-14	11
c1ccc(-c2nn3c(C4CCCCC4)nnc3s2)nc1	2314	-4	-0.5	.	.	-16	4
CC12CCC(C3NC(=S)NN=C31)C2(C)C (centres undefined)	3822	.	4.5	21	14	-24	8
CNC(=O)Nc1ccccc1C(=O)NCc1ccccc1	2764	-6	2.2	.	.	-12	-4
Cc1cccc(C2=NN(c3ccc(Br)cc3)[C@@H](C(=O)N3CCOC3=O)[C@@H]2C)c1	3744	.	-16	2	-2	-17	73
COC(=O)c1ccc(/C=N/NC(=S)NC(C)C)cc1	3356	4	.	.	.	0	.
COC(=O)N1C(=O)[C@](Cc2ccccc2)(c2ccccc2)N1C(=O)OC	2964	-6	.	.	.	-3	.
O=C(NCc1ccc(Cl)cc1)c1noc2c1CCCCC2	10514	7	-4.2	-10	-3	-26	4
CCOc1ccc(C(CC(=O)O)NC(=O)C(Sc2ccccc2)c2ccccc2)cc1 (centres undefined)	4578	1	2.9	-4	-2	-29	10
C=CCN(CC=C)CC(O)Cn1c2ccccc2c2ccccc21 (centres undefined)	10951	13	5.9	11	1	-11	-5
COC(=O)c1ccccc1NC(=O)COC(=O)c1cccnc1	8760	-7	3.9	12	13	-6	2
C/C=C/C(=O)Nc1ccc(N2CCN(c3ccc(C(F)(F)F)cn3)CC2)nc1	5381	-3	2.4	11	6	-2	6
Nc1cc2c(cc1N)-c1ccccc1C2	3250	.	-3.7	9	8	-2	1
N#Cc1nc(-c2cccs2)oc1NCc1ccco1	9031	-9	0.8	-4	6	5	-5
CCOC(=O)C1CCCN(Cc2c(Cl)cccc2Cl)C1 (centres undefined)	11239	7	5.2	8	-2	-18	14
Cc1cccc2nc(CNC(=O)C3CCC(=O)N(Cc4ccccc4F)C3)cn12 (centres undefined)	5777	-5	-2.1	0	-2	-7	1

(further entries)
SMILES	Autofluor counter	BJeLR viability	RN4220 kill	Mtb hypoxia rep	Mtb hypoxia rep growth	PrP 5UTR inh	ugtP null kill
Cn1cccc1C=NNC(=O)CSc1nc2ccccc2[nH]1	.	.	5.1	15	0	.	4
COc1ccc(CNc2ccc3c(c2)ncn3-c2ccccc2OC)cc1	7487	-12	3.5	8	4	-18	29
COc1ccc(N(CC(=O)NCc2ccccc2Cl)S(=O)(=O)c2c(C)n[nH]c2C)cc1	5548	-9	0.1	4	3	-6	5
CC1CCN(C(=O)COC(=O)c2cc([N+](=O)[O-])ccc2N2CCOCC2)CC1	?	-14	0.8	1	1	2	2
CCOC(=O)C1=C(c2ccccc2)OC(N)=C(C#N)C1c1ccncc1 (centres undefined)	3425	-13	13	3	-6	-7	5
CCOc1ccc(NC(=O)CN(C)C(=O)CSCc2c(C)noc2C)cc1OCC	7518	4	0.3	7	3	-21	6
COc1ccc(-c2noc(CCC(=O)Nc3cc(OC)ccc3OC)n2)cc1	2666	2	3.7	.	.	-9	3
CC(OC(=O)CCc1nc2ccccc2c(=O)[nH]1)C(=O)Nc1ncc(Cl)cc1Cl (centres undefined)	4482	-5	3.6	14	4	-21	5
O=C(Nc1ccc(N2CCN(C(=O)c3cccs3)CC2)cc1)c1cccnc1	2201	-4	2.4	-4	6	-25	2
CCOc1ccc(CCNC(=O)C2=C(C)C(=O)OC23CCC(C)CC3)cc1 (centres undefined)	5646	2	-9.3	11	9	-22	-7
COc1ccc(C(CNc2ncnc3sccc23)N(C)C)cc1OC (centres undefined)	4573	-3	0.8	1	-1	-10	-7
COc1ccc(Oc2coc3cc(OC(=O)N4CCOCC4)ccc3c2=O)cc1	11016	-19	4.5	14	11	-23	1
CCOc1ccccc1C(=O)OCC(=O)NCC1CCCCC1	?	20	5.7	-6	-9	4	3
COC(=O)c1cc(Br)ccc1OC(=O)c1cccnc1	9182	-4	1.5	1	15	-11	0
O=C(COC(=O)c1nc(Cl)ccc1Cl)NNC(=O)c1ccccc1	5303	-4	1.8	2	5	-4	6
Cc1ccc2c(c1)cc(C)c1nnc(SCC(=O)NCc3ccco3)n12	13149	-5	-4.5	4	11	-17	16
CCCCN(CC)CCCNC(=O)c1ccc2c(c1)N(CC)C(=O)c1ccccc1S2(=O)=O	3697	4	-4.0	-8	6	-15	7
Cc1cc(C)n(-c2nncn2/N=C/c2ccccc2F)n1	3845	-3	.	.	.	-18	.
O=C(CN1CCN(S(=O)(=O)c2ccc(F)cc2)CC1)NCc1cccs1	6393	1	9.0	9	3	-23	-6
COc1cccc2sc(Nc3nnc(-c4cccs4)o3)nc12	6469	23	8.6	-75	-15	-22	4
CC(C)=CCC/C(C)=C/CN(CC(C)O)CC(C)O (centres undefined)	11038	-5	2.8	5	2	-13	13
CN(C)S(=O)(=O)N1CCN(C(=O)c2ccccc2Cl)CC1	8246	-1	2.4	6	12	-36	2
C=CCc1cccc(/C=N/c2nc3ccccc3n2CC)c1O	10292	-6	.	.	.	-19	.
COc1ccc(-c2nn(-c3ccccc3)cc2C#N)cc1	2236	-3	7.1	.	.	-57	5
CN(C)Cc1nc2c([nH]1)c(=O)n(C)c(=O)n2C	5247	5	7.4	5	8	-27	4

More compounds follow:
SMILES	Autofluor counter	BJeLR viability	RN4220 kill	Mtb hypoxia rep	Mtb hypoxia rep growth	PrP 5UTR inh	ugtP null kill
Cc1cccc(N2CC(C(=O)Nc3ccccc3N3CCOCC3)CC2=O)c1C (centres undefined)	3301	.	6.1	15	7	-28	2
CCCCn1c(N)c(C(=O)OCC2CCCO2)c2nc3ccccc3nc21 (centres undefined)	10838	-3	0.7	-8	5	.	-25
CCCCC(=O)N/N=C/c1cc([N+](=O)[O-])ccc1N1CCOCC1	1986	1	.	.	.	6	.
COc1cc(NC(=O)CCNS(=O)(=O)c2cc(Br)cnc2N)cc(OC)c1	5843	0	14	6	3	-9	6
CC(C)(C)c1ccc(C=NNC(=O)c2ccccn2)cc1	.	.	0.1	7	16	.	10
C=CCN1C(=O)/C(=C\c2ccc(N3CCOCC3)o2)C(=O)NC1=S	2479	0	6.9	16	0	-28	8
CCOC(=O)c1ccccc1NC(=S)N1CCCCC1	2655	2	6.6	1	-2	-20	7
CC(C)[C@H](NC(=O)c1ccccc1)C(=O)OCC(=O)N1CC(=O)Nc2ccccc21	7458	-2	2.5	12	0	-40	4
CCN(CC)C(=O)C12CC3CC(CC(Br)(C3)C1)C2	3021	-6	10	4	7	-18	8
COc1cc(C(c2nnnn2C(C)(C)C)N2CCN(c3nc4ccccc4s3)CC2)ccc1O (centres undefined)	4915	-5	4.2	.	.	-22	-4
CSc1c(CC(=O)Nc2ccccc2)n(C)c2ccccc12	.	4	-0.6	5	-3	-41	0
CN1CCN(/N=C/c2ccc(Cl)c(Cl)c2)CC1	9666	9	.	.	.	-71	.
CC(C)(C)C(=O)NC(=S)Nc1cc(C(=O)O)ccc1Cl	2485	0	-3.2	.	.	-7	7
CC1(C)CC(NC(=S)NCc2ccco2)CC(C)(C)N1	3171	4	-2.7	4	12	-20	2
CCC(C)NC(=O)C1CCCCN1S(=O)(=O)c1ccc(F)cc1 (centres undefined)	11219	2	7.1	10	7	5	-1
Clc1cccc(CN2C3=NCCCN3c3ccccc32)c1	3834	0	2.4	7	3	-8	10
CCOC(=O)c1cc2ccccc2nc1C	8585	-2	-6.3	-20	5	-23	-11
O=C(OCC(=O)c1ccc[nH]1)C1=COCCO1	3555	.	3.7	11	4	-12	8
CCCC(c1nnnn1Cc1ccccc1)N1CCC(C(N)=O)CC1 (centres undefined)	4978	.	1.5	.	.	-5	7
CCC(=O)Nc1c(C)nn(-c2ccc(C)c(C)c2)c1C	2229	-11	-4.2	-9	-5	-25	3
CCOc1ccccc1NC(=O)CN1C(=O)COc2ccc(C)cc21	4137	-11	2.4	12	-5	-16	12
COC(=O)c1ccccc1NC(=O)NCCc1ccc(OC)c(OC)c1	5276	-8	2.9	4	1	39	-3
O=C(NC1CCC(=O)N(C(CSc2ccccc2)Cc2ccccc2)CC1)OCc1ccccc1 (centres undefined)	.	.	5.8	12	13	.	-4
Cc1[nH]c2ccc(OC(F)(F)F)cc2c1CCNCc1ccc(Cl)cc1	3469	1	82	9	-1	2	24
COc1cccc(N2CCN(C(=O)c3cccc(N4C(=O)NC5CC4(C)Oc4c(OC)cccc45)c3)CC2)c1 (centres undefined)	6541	6	2.6	10	-1	-5	4

Among those listed so far, 3 contain a cyano group.
SMILES	Autofluor counter	BJeLR viability	RN4220 kill	Mtb hypoxia rep	Mtb hypoxia rep growth	PrP 5UTR inh	ugtP null kill
N#Cc1nc(-c2cccs2)oc1NCc1ccco1	9031	-9	0.8	-4	6	5	-5
CCOC(=O)C1=C(c2ccccc2)OC(N)=C(C#N)C1c1ccncc1 (centres undefined)	3425	-13	13	3	-6	-7	5
COc1ccc(-c2nn(-c3ccccc3)cc2C#N)cc1	2236	-3	7.1	.	.	-57	5

Back to the main list; the four compounds before the break are reprinted first.
SMILES	Autofluor counter	BJeLR viability	RN4220 kill	Mtb hypoxia rep	Mtb hypoxia rep growth	PrP 5UTR inh	ugtP null kill
COC(=O)c1ccccc1NC(=O)NCCc1ccc(OC)c(OC)c1	5276	-8	2.9	4	1	39	-3
O=C(NC1CCC(=O)N(C(CSc2ccccc2)Cc2ccccc2)CC1)OCc1ccccc1 (centres undefined)	.	.	5.8	12	13	.	-4
Cc1[nH]c2ccc(OC(F)(F)F)cc2c1CCNCc1ccc(Cl)cc1	3469	1	82	9	-1	2	24
COc1cccc(N2CCN(C(=O)c3cccc(N4C(=O)NC5CC4(C)Oc4c(OC)cccc45)c3)CC2)c1 (centres undefined)	6541	6	2.6	10	-1	-5	4
Cc1ccc(-c2cc(C(=O)NCc3ccco3)no2)cc1	8560	0	4.8	15	8	-79	-3
CN1/C(=C\C=C(/C#N)C(=O)Nc2ccc(Cl)cc2)C(C)(C)c2ccccc21	3566	8	.	.	.	-18	.
CCNC(=S)Nc1cccc(Cl)c1C	3422	1	2.4	3	2	0	-8
CCN(CC)CC1C(=O)N(c2ccc(OC)cc2)C1c1ccccc1 (centres undefined)	3749	12	0.0	18	7	-5	3
Cc1cc(C(=O)Nn2c(-c3ccc(Br)cc3)nc3ccccc3c2=O)ccc1[N+](=O)[O-]	2816	12	9.1	3	-2	-11	-18
Cn1ccnc1SCc1ccc(Cl)cc1Cl	3665	2	4.4	-1	3	-11	5
Cc1ccnc(NC(=O)CCCc2ccccc2)c1	2109	-10	-2.1	0	-3	-49	3
Cc1ccc(C(=O)NCCCNC(=O)Cc2ccc(Cl)cc2)cn1	6041	-6	-1.3	-3	-9	-8	3
Cc1ccc(CNC(=O)c2cnccn2)cc1	2378	-4	5.2	.	.	2	4
COc1ccc2[nH]c(=O)c(CN(Cc3cccs3)C(=S)NCC3CCCO3)cc2c1 (centres undefined)	4335	2	5.2	8	1	-11	4
O=C(CN1C(=O)c2ccccc2S1(=O)=O)NCc1c(F)cccc1F	5012	-5	2.8	5	5	-14	13
N#Cc1c(NC(=O)C2CC(c3ccccc3O)=NO2)sc2c1CCC2 (centres undefined)	2028	-7	-0.2	6	8	-7	-26
